# From PubChem BioAssay
# DUX4 txn inh: DUX4-mediated transcription inhibition. 293T-iDUX4 ZSCAN4-Gaussia luciferase reporter, 24 h; hits give low values. activity change, negative = inhibition, % (test concentration not listed). hit rate 0.8% among 37,000. AID 1224904;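 active means -10% or lower and over 25 points stronger than a control reporter; inconclusive means -10% or lower with a smaller gap; inactive means above -10%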;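 further: 0% = median of neutral control wells and -100% = median of positive control wells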
# DUX4 txn inh difference: further read-out of DUX4 txn inh, marked with its call; Gaussia minus Italica difference, %; measured here: selective DUX4 reporter inhibition;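 worked out from the two reporters; negative = selective loss of the DUX4 reporter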
# DUX4 txn inh control: recorded beside DUX4 txn inh, whose call it bears; activity change, negative = inhibition, %; measured here: Italica tet-on control reporter;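 0 = neutral control and -100 = positive control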
# Active calls of the source: *; ? = inconclusive; . = no result given; & = joins results of further samples.
SMILES,DUX4 txn inh,DUX4 txn inh difference,DUX4 txn inh control
C[C@@H]1CN([C@@H](C)CO)C(=O)CCCn2nncc2CO[C@H]1CN(C)Cc1ccccc1O,-2,-2,-0.8
C[C@@H]1CCCCO[C@H](CN(C)Cc2ccc(C(=O)O)cc2)[C@H](C)CN([C@@H](C)CO)C(=O)c2cc(N(C)C)ccc2O1,8,8,0.2
Cc1ccc(S(=O)(=O)N[C@@H]2CC[C@@H](CC(=O)N3CCc4ccccc4C3)O[C@@H]2CO)cc1,0,0,0.3
N#C[C@@H]1[C@H](c2ccccc2C2=CCCC2)[C@@H](CO)N1S(=O)(=O)c1ccccc1,?,.,.
COc1cccc(NC(=O)N[C@H]2CC[C@H](CC(=O)N3CCN(C)CC3)O[C@H]2CO)c1,-4,0,-3.9
CS(=O)(=O)N1CCCCN2[C@H](C1)[C@@H](c1ccc(Br)cc1)[C@@H]2CO,11,4,7.3
O=C(C[C@H]1C[C@H]2c3cc(NC(=O)Nc4ccc(C(F)(F)F)cc4)ccc3O[C@H]2[C@@H](CO)O1)NCc1cc(F)ccc1F,7,4,2.4
CN1C[C@H]2[C@@H](c3ccccc31)[C@H](CO)N2C(=O)C1CCOCC1,7,4,3.1
C[C@H]1CN([C@@H](C)CO)C(=O)c2cc(NC(=O)Cc3cn(C)c4ccccc34)ccc2O[C@H]1CN(C)Cc1ccc2c(c1)OCO2,-1,1,-1.2
CC(C)CC#Cc1ccc([C@@H]2[C@@H](CO)N3C(=O)CN(C(=O)Nc4cc(F)ccc4F)C[C@@H]23)cc1,1,4,-2.7
CN(C)CCCNC(=O)[C@@H]1[C@@H](CO)[C@@H]2Cn3c(ccc(-c4ccncc4)c3=O)[C@H]1N2C(=O)C1CC1,8,5,2.7
O=C(c1cnccn1)N1CC(=O)N2[C@H](CO)[C@H](c3ccc(C#CCC4CCCC4)cc3)[C@H]2C1,?,.,.
C[C@H](CO)N1C[C@H](C)[C@@H](CN(C)C(=O)c2ccccn2)Oc2ncc(-c3ccccc3)cc2C1=O,-2,-2,0.3
Cc1cccc(S(=O)(=O)N2CCCCN3[C@H](CO)[C@H](c4ccc(C#C[C@H](C)O)cc4)[C@@H]3C2)c1,?,.,.
C/C=C/c1ccc(C2[C@H]3CNC[C@@H]2N3S(=O)(=O)c2cn(C)cn2)cc1 (some centres not stated),18&7,8&1,10&5.5
OC[C@@H]1[C@@H](c2ccccc2)C2(CN(CCC(F)(F)F)C2)N1Cc1nccs1,2,-1,3.0
Cc1ccc(S(=O)(=O)Nc2ccc3c(c2)CC(=O)N([C@@H](C)CO)C[C@H](C)[C@@H](CN(C)S(=O)(=O)c2ccccc2)O3)cc1,-2,-2,-0.1
N#Cc1cccc(-c2ccc3c(c2)[C@@H]2[C@@H](CCN2S(=O)(=O)c2ccc(F)cc2)[C@@H](CO)N3)c1,?,.,.
COc1ccc2c3c([nH]c2c1)[C@H](CO)N(C(=O)c1ccc(F)cc1)CC31CCN(C(=O)Nc2ccc(F)cc2)CC1,?,.,.
N#C[C@H]1[C@@H](c2ccc(-c3cccc(F)c3)cc2)[C@@H](CO)N1c1nc(-c2ccccc2)cs1,0,-2,2.7

# 11 structures already listed, sorted by count of non-hydrogen atoms, smallest number first:
SMILES,DUX4 txn inh,DUX4 txn inh difference,DUX4 txn inh control
CN1C[C@H]2[C@@H](c3ccccc31)[C@H](CO)N2C(=O)C1CCOCC1,7,4,3.1
C/C=C/c1ccc(C2[C@H]3CNC[C@@H]2N3S(=O)(=O)c2cn(C)cn2)cc1 (some centres not stated),18&7,8&1,10&5.5
OC[C@@H]1[C@@H](c2ccccc2)C2(CN(CCC(F)(F)F)C2)N1Cc1nccs1,2,-1,3.0
COc1cccc(NC(=O)N[C@H]2CC[C@H](CC(=O)N3CCN(C)CC3)O[C@H]2CO)c1,-4,0,-3.9
N#C[C@H]1[C@@H](c2ccc(-c3cccc(F)c3)cc2)[C@@H](CO)N1c1nc(-c2ccccc2)cs1,0,-2,2.7
N#Cc1cccc(-c2ccc3c(c2)[C@@H]2[C@@H](CCN2S(=O)(=O)c2ccc(F)cc2)[C@@H](CO)N3)c1,?,.,.
CC(C)CC#Cc1ccc([C@@H]2[C@@H](CO)N3C(=O)CN(C(=O)Nc4cc(F)ccc4F)C[C@@H]23)cc1,1,4,-2.7
CN(C)CCCNC(=O)[C@@H]1[C@@H](CO)[C@@H]2Cn3c(ccc(-c4ccncc4)c3=O)[C@H]1N2C(=O)C1CC1,8,5,2.7
C[C@@H]1CCCCO[C@H](CN(C)Cc2ccc(C(=O)O)cc2)[C@H](C)CN([C@@H](C)CO)C(=O)c2cc(N(C)C)ccc2O1,8,8,0.2
O=C(C[C@H]1C[C@H]2c3cc(NC(=O)Nc4ccc(C(F)(F)F)cc4)ccc3O[C@H]2[C@@H](CO)O1)NCc1cc(F)ccc1F,7,4,2.4
C[C@H]1CN([C@@H](C)CO)C(=O)c2cc(NC(=O)Cc3cn(C)c4ccccc34)ccc2O[C@H]1CN(C)Cc1ccc2c(c1)OCO2,-1,1,-1.2

# Continuation.
SMILES,DUX4 txn inh,DUX4 txn inh difference,DUX4 txn inh control
COc1ccc(C[C@H]2CCc3cnnn3COC[C@H](c3ccccc3)NC2=O)cc1,2,2,0.6
Cc1cccc(S(=O)(=O)N2CCCCN3[C@H](C2)[C@H](c2ccc(C#C[C@H](C)O)cc2)[C@@H]3CO)c1,?,.,.
CO[C@H]1CN(C)C(=O)c2ccc(NS(C)(=O)=O)cc2OC[C@H](C)N(Cc2ccccn2)C[C@H]1C,5,0,4.8
Cc1ccccc1-c1cnc2c(c1)C(=O)N([C@@H](C)CO)C[C@H](C)[C@H](CN(C)CC1CCOCC1)O2,0,-3,3.2
COc1cccc(-c2ccc3c(c2)O[C@H](CN(C)Cc2cccnc2)[C@@H](C)CN([C@H](C)CO)S3(=O)=O)c1,-4,-3,-0.1
COc1ccc2c3c(n(C)c2c1)[C@H](CO)N(C(C)=O)CC31CN(C(=O)C2CC2)C1,14,-7,20
O=S(=O)(c1ccccc1F)N1CC[C@@H]2[C@H](CO)Nc3ccc(-c4ccccc4F)cc3[C@@H]21,?,.,.
CO[C@H]1CN(C)C(=O)c2ccc(NC(=O)NC(C)C)cc2OC[C@H](C)N(C(=O)NC(C)C)C[C@H]1C,2,1,1.2
COc1ccc(C(=O)N2C[C@@H]3[C@H](c4ccccc42)[C@@H](CO)N3C(=O)c2ccc(F)cc2)cc1,-4,-7,3.0
COc1ccc(NC(=O)Nc2cccc3c2O[C@@H](CN(C)S(=O)(=O)c2cccs2)[C@H](C)CN([C@@H](C)CO)C3=O)cc1,-3,0,-3.0
CCC(=O)N1CC2(C1)[C@@H](c1ccc(-c3ccc(F)cc3)cc1)[C@H](CO)N2C(C)=O,13,14,-1.2
COc1ccc2c3c([nH]c2c1)[C@@H](CO)N(C(=O)c1ccncc1)CC31CN(C(=O)c2ccncc2)C1,18,-2,20
CCS(=O)(=O)N1CCCCN2[C@H](CO)[C@H](c3ccc(-c4ccc(C#N)cc4)cc3)[C@H]2C1,9,5,3.5
CCc1cnc(N2[C@H](C#N)[C@H](c3ccc(C#CC(C)C)cc3)[C@H]2CO)s1,1,2,-0.4
O=C([C@@H]1[C@@H](CO)[C@@H]2Cn3c(cccc3=O)[C@H]1N2CC1CC1)N1CCc2ccccc2C1,-3,-1,-1.6
CN1C(=O)c2cc(NC(=O)Cc3ccccc3)ccc2OC[C@H]2O[C@H](CC(=O)NCC3CC3)CC[C@@H]21,4,0,3.2
CO[C@@H]1CN(C)C(=O)c2ccc(NC(=O)C3CC3)cc2OC[C@@H](C)N(Cc2nccs2)C[C@H]1C,2,4,-2.0
COc1cccc(C(=O)Nc2ccc3c(c2)OC[C@H](C)N(CCc2ccccc2)C[C@H](C)[C@H](OC)CN(C)C3=O)c1,?,.,.
CN(C)CC(=O)N1CC(=O)N2[C@@H](CO)[C@H](c3ccc(/C=C/c4ccccc4)cc3)[C@@H]2C1,6,5,1.0
CCCNC(=O)N1C[C@H](O)COC[C@@H]2O[C@@H](CC(=O)N3CCC(Cc4ccccc4)CC3)CC[C@H]21,-2,-4,2.6
N#C[C@@H]1[C@H](c2ccccc2C2=CCCC2)[C@H](CO)N1C(=O)C1CC1,9,0,8.5
COCC(=O)N1CC(=O)N2[C@@H](CO)[C@H](c3ccc(C#Cc4cccc(OC)c4)cc3)[C@@H]2C1,10,5,4.6
CN(C)CC(=O)Nc1ccc2c(c1)[C@@H]1C[C@@H](CC(=O)NCc3ccccn3)O[C@@H](CO)[C@@H]1O2,0,2,-2.0
C[C@@H]1CCCCO[C@H](CN(C)C(=O)Nc2ccc3c(c2)OCO3)[C@H](C)CN([C@H](C)CO)C(=O)c2cc(NC(=O)Nc3ccc(C(F)(F)F)cc3)ccc2O1,2,1,1.1
O=C(c1ccc2c(c1)OCO2)N1C[C@@H]2[C@H](c3ccccc31)[C@H](CO)N2Cc1cccnc1,1,0,1.1
CN1C(=O)c2cc(NC(=O)c3cccs3)ccc2OC[C@H]2O[C@H](CC(=O)NCC(F)(F)F)CC[C@H]21,1,2,-0.9
O=C(Nc1ccccc1Cl)N1C[C@H]2[C@@H](c3ccccc31)[C@H](CO)N2C(=O)c1cccnc1,2,0,1.7
CCC(=O)Nc1ccc2c(c1)OC[C@H](C)N(Cc1ccccc1)C[C@H](C)[C@H](OC)CN(C)C2=O,-6,-12,6.1
CCC(=O)NC[C@H]1[C@@H](c2ccccc2)[C@@H](CO)N1C(=O)C1CC1,3,4,-0.8
CO[C@H]1CC[C@H]2CCOc3c(C#N)cccc3C(=O)N(C)C[C@@H](OC)[C@@H](C)C(=O)N(C)C[C@H]1O2,-3,-1,-2.7
Cc1ccc(S(=O)(=O)N2CC[C@@H]3[C@H](CO)Nc4ccc(-c5cccc(C(=O)N(C)C)c5)cc4[C@@H]32)cc1,?,.,.
N#C[C@H]1[C@@H](c2ccccc2C2=CCCC2)[C@H](CO)N1S(=O)(=O)c1ccccc1,-9,-5,-4.1
O=C(C[C@@H]1CC[C@H]2[C@@H](COC[C@@H](O)CN2S(=O)(=O)c2ccc(Oc3ccccc3)cc2)O1)Nc1ccccc1,-10,-1,-8.9
COc1ccc2c3c([nH]c2c1)[C@H](CO)N(S(C)(=O)=O)CC31CCN(CC2CCCC2)CC1,8,17,-9.2
O=C(c1cccc(F)c1)N1CCCCN2[C@H](C1)[C@H](c1ccc(-c3cncnc3)cc1)[C@@H]2CO,9,2,7.4
COc1ccccc1S(=O)(=O)N(C)C[C@H]1OCc2ccccc2-c2c(n(C)c3ccccc23)C(=O)N([C@H](C)CO)C[C@@H]1C,?,.,.
CCCNC(=O)N1[C@H](CO)[C@H](c2ccc(/C=C/c3ccccc3)cc2)[C@@H]1C#N,-2,5,-6.9
C[C@H]1CN([C@@H](C)CO)C(=O)Cc2cc(N(C)C)ccc2O[C@H]1CN(C)Cc1ccc(-c2ccccc2)cc1,-3,-7,3.3
N#C[C@@H]1[C@H](c2ccc(-c3cncnc3)cc2)[C@H](CO)N1C(=O)CN1CCOCC1,-1,1,-1.6
CC(C)(C)[S@@](=O)N1Cc2cc(C(=O)NCc3ccccc3F)nc(-c3cccc(-c4cccnc4)c3)c2[C@H]1CCO,-1,-1,0.6
O=C(C[C@@H]1CC[C@H]2[C@@H](COC[C@@H](O)CN2C(=O)Nc2ccc(Cl)cc2)O1)N1CCCCC1,3,-7,11
C[C@@H]1CN([C@H](C)CO)C(=O)c2cc(-c3ccc(C(=O)N(C)C)cc3)cnc2O[C@H]1CN(C)C(=O)c1cccnc1,0,4,-4.4
CN(C)C(=O)c1ccc(-c2ccc3c(c2)[C@@H]2[C@@H](CCN2Cc2ccncc2)[C@@H](CO)N3)cc1,19,14,5.0
CCNC(=O)Nc1ccc2c(c1)C(=O)N(C)[C@H]1CC[C@@H](CC(=O)NCCOC)O[C@H]1CO2,4,-3,7.0
COc1ccc(NC(=O)Nc2ccc3c(c2)[C@@H]2C[C@H](CC(=O)N4CCN(C)CC4)O[C@H](CO)[C@@H]2O3)cc1,4,4,0.2
CN(C)C(=O)[C@@H]1[C@@H](CO)[C@@H]2Cn3c(ccc(C4=CCCCC4)c3=O)[C@@H]2N1Cc1ccccn1,2,-4,5.4
CCCNC(=O)C[C@@H]1CC[C@H]2[C@@H](COc3ccc(NC(=O)c4cccc(C(F)(F)F)c4)cc3C(=O)N2C)O1,5,4,0.5
C[C@@H]1CCCCO[C@H](CN(C)S(=O)(=O)c2ccc(F)cc2)[C@H](C)CN([C@H](C)CO)C(=O)c2cc(N(C)C)ccc2O1,2,5,-2.7
CC(C)C(=O)Nc1ccc2c(c1)C(=O)N(C)[C@@H]1CC[C@H](CC(=O)NCCCN(C)C)O[C@@H]1CO2,-3,0,-2.5
O=C(c1cccnc1)N1C[C@@H]2[C@H](c3ccccc31)[C@@H](CO)N2CC1CCCCC1,-5,-3,-1.4
C[C@H](NC(=O)C[C@@H]1C[C@H]2c3cc(N(C)C)ccc3O[C@H]2[C@H](CO)O1)c1ccccc1,-7,-5,-2.0
COCC(=O)Nc1ccc2c(c1)OC[C@H](C)N(CCC(F)(F)F)C[C@@H](C)[C@@H](OC)CN(C)C2=O,3,-1,4.2
O=C(C[C@@H]1CC[C@@H]2[C@H](COC[C@H](O)CN2C(=O)c2cnccn2)O1)NCc1ccccc1,20,7,12
CO[C@H](CN(C)C(=O)c1ccc2c(c1)OCO2)[C@H](C)CN([C@@H](C)CO)S(=O)(=O)c1ccccc1,1,5,-3.5
C/C=C/c1ccc([C@@H]2[C@@H](C#N)N(c3nc(-c4ccccc4)cs3)[C@H]2CO)cc1,-1,-4,2.3

# Only part of the results is shown (hit frequency here may not be typical).
